Assay outcomes (PubChem)
Menin MLL FP FL: inhibitors of human menin-MLL interaction, wild-type MLL peptide | Fluorescence polarization, fluorescein-MLL peptide displacement from menin | FP activity change, % at 61.4 µM | 290,000 tested, under 10 active; inconclusive = falling polarisation curve, or a change in total fluorescence; inactive = total fluorescence flat and polarisation flat or rising; no compound was filed as active; the % refers to the polarisation; negative = inhibition;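 also: % of control where 0% means no effect; inhibitors lower the polarisation; unlabelled MLL peptide was the positive control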
ClpP mod: qHTS Assay for Activators of ClpP; ATP-dependent Clp protease proteolytic subunit (Bacillus subtilis (strain 168)), P80244; purified B. subtilis ClpP, FRET peptide cleavage, 20 min; Potency, µM (doses to about 57.5 µM), without a hit: top-dose activity change, negative = active; hit rate 1.9% among 340,000; active = well fitted falling curve with a large enough effect; inconclusive = small, poorly fitted or top-dose-only effect; inactive = no such curve, though single readings can be large or run the other way; also: potency is read from the fitted curve at half-maximal effect; the source files actives as falling curves though it sought activators and does not explain the sign; nearly all actives have a fitted effect of over 65% in size; many hits overshoot -100%
Target sequence (P80244 whole entry, looked up): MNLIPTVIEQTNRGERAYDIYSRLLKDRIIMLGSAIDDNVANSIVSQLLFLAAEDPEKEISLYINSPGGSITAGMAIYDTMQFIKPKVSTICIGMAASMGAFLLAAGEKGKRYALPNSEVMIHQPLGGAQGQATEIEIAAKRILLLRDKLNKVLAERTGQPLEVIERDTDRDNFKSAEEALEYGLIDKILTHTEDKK
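FRET quenching reversal measured ClpP activation: 10 microg/mL B. subtilis ClpP at pH 8 with the FRET-FV decapeptide, read at 430 nm after 320 nm excitation. The 20-min minus 0-min signal was scaled between DMSO/no-enzyme wells and ADEP (5.8 microM final).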
Sfp inh: Sfp phosphopantetheinyl transferase inhibition; Q9F4F7; Biochemical Sfp PPTase activity, qHTS; Potency, µM, for the others: max response, negative = inhibition, hits mostly inhibitors; hit rate 3.5% among 310,000; active = well fitted inhibition curve with a large enough effect; inconclusive = small, poorly fitted or top-dose-only effect, or another doubt; inactive = no such curve, though single readings can be large or run the other way;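 also: the enzyme is Sfp with the accession as filed and its product quenches rhodamine fluorescence; potency is read from the fitted curve at half-maximal effect; 0% = enzyme reaction without inhibitor and -100% = no enzyme wells; top concentration of the series not given in the record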
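Fluorescence-quenching assay: 15 nM Sfp-PPTase preincubated 15 min at room temperature with compound, then 5 uM rhodamine-CoA and 12.5 uM BHQ-2-labelled YbbR peptide added. Fluorescence (ex 525/em 598 nm) read at start and after 30 min; difference gives rate.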
D2 ag: human D2 receptor agonism in beta-arrestin assay; P14416; DiscoveRx PathHunter D2 beta-arrestin, luminescence, 90 min; 100% = 57 uM dopamine signal; activation, % (concentration not given with the values); hit rate 0.084% among 360,000; AID 624465; in the data active = activation above about 40%; inconclusive = about 15% to 40%; inactive = below about 15%; also: compound concentration not given in the record; the text of the record calls up to 30% inactive
Target sequence (P14416 whole entry, looked up): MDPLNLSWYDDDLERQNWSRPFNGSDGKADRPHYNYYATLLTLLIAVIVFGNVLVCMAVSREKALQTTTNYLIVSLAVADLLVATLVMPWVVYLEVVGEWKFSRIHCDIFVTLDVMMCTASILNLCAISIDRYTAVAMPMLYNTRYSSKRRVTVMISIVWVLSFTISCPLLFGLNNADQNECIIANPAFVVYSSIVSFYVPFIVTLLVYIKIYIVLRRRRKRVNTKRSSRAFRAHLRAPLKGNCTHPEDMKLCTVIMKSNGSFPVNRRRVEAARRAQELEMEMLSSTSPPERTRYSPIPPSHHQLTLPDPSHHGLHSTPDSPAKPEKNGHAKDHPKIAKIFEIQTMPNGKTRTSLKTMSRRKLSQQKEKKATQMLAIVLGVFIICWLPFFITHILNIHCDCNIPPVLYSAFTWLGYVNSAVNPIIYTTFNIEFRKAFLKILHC
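DiscoveRx PathHunter D2 beta-arrestin cells (2,100/well) attached overnight, then compound-stimulated 90 min at 37 C in HBSS/10 mM HEPES/0.1% Tween-20 buffer; beta-galactosidase complementation read by luminescence after 1 h at ambient temperature. Dopamine 57 uM final (EC100) as control.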
gsp antagonist: gsp mutant antagonism; gsp-mutant cells, cAMP HTRF, 30 min; control for the full effect not named in the record; Potency, µM (top dose mostly 76.9 µM), for inactives: top-dose activity change, negative = inhibition, hits mostly inhibitors; hit rate 0.4% among 340,000; active = falling curve of any shape with a large fitted effect; inconclusive = falling curve, mostly with a smaller effect; inactive = flat or rising curve; cell line not stated here;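 also: intracellular cAMP measured with PDE inhibitor Ro 20-1724 present during compound exposure; potency is read from the fitted curve at half-maximal effect; % is scaled to controls: 0 for no effect and ±100 for the full control effect; nearly all actives have a fitted effect of over 65% in size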
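G418-selected cells were plated in DMEM/10% FBS for 16-24 h at 37C, then treated with compounds plus the PDE inhibitor […] (300 uM solution added) for 30 min at 37C. Intracellular cAMP was measured by HTRF after 30 min lysis at room temperature.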
gsp agonist: gsp mutant agonism; gsp mutant cells, cAMP HTRF, 30 min; control for the full effect not named in the record; Potency, µM (top dose mostly 76.9 µM), without a hit: top-dose activation (cAMP increase), usual class: activators; hit rate 0.13% among 340,000; active = well fitted activation curve with a large enough effect; inconclusive = small, poorly fitted or top-dose-only effect, or another doubt; inactive = no such curve, though single readings can be large or run the other way; cell line not stated here;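 also: phosphodiesterase inhibitor Ro 20-1724 added with compounds to block cAMP breakdown; potency is read from the fitted curve at half-maximal effect; nearly all actives have a fitted effect of over 60% in size; about a fifth of the inactives were tested at one dose only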
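Cells stably selected in G418 were plated at 2000/well, grown 16-24 hr, then given compounds in DMSO with the PDE inhibitor […] (300 uM solution added) for 30 min at 37C; cAMP was read by HTRF.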
PINK1 modulator: changes PINK1 expression; Potency, µM (series often up to 76.6 µM), for the others: at the highest dose activation (PINK1 increase), actives largely listed as activators; hit rate 0.2% among 410,000; PINK1 immunofluorescence, high-content cytometry, 24 h; AID 624263; active = well fitted activation curve with a large enough effect; inconclusive = small, poorly fitted or top-dose-only effect; inactive = flat fitted curve, though single readings scatter; cell line not stated here;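 also: potency is read from the fitted curve at half-maximal effect; % of control where 0% means no effect; nearly all actives have a fitted effect of over 65% in size; a mitochondrial uncoupler was the plate control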
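A stable cell line was treated with compounds at 5 concentrations for 24 hours, with CCCP as control. PINK1 levels and mitochondrial localization were measured by immunofluorescence with mitochondrial, cell and nuclear markers after fixation, read by laser-scanning cytometry.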
Active calls of the source: *; ? = inconclusive; . = not tested or not shown; [ ] = another dose, or the depositor's remark.

SMILES | Menin MLL FP FL | ClpP mod | Sfp inh | D2 ag | gsp antagonist | gsp agonist | PINK1 modulator
CCC(C)c1ccc(NC(=O)NCc2cccnc2)cc1 (configuration not stated) | 6.0 | 0.3% | -1% | 2.3 | 11% | 0%[15.4 µM] | 1.7%
CCOC(=O)c1sc(NC(=S)NC(=O)c2cccc(OC)c2)nc1C | -0.7 | -15% | ? | -3.7 | 4% | 5%[15.4 µM] | 2.8%
CCC1CCCCN1CCCNC(=O)CCCNC(=O)Cn1cnc2sc3c(c2c1=O)CCCC3 (configuration not stated) | -1.3 | . | 11% | -1.3 | 13% | ? | -0.1%
CC(OC(=O)/C=C/c1ccc2ccccc2n1)C(=O)Nc1ccc(S(N)(=O)=O)cc1 (configuration not stated) | . | 0.0% | . | 0.8 | -8% | 9%[15.4 µM] | ?
Cc1cc(Cl)c2oc(C(=O)N3CCN(C(=O)c4ccco4)CC3)c(C)c2c1 | 0.0 | -0.3% | -16% | 3.3 | -12% | ? | -0.9%
CCn1cc(C(=O)OCC(=O)Nc2c(C)n(C)n(-c3ccccc3)c2=O)c(=O)c2ccc(C)nc21 | -1.5 | 1.1% | 16% | -2.5 | 15% | -11% | .
O=C(CSc1nc2ccccc2c(=O)n1-c1ccccc1)NCC1CCCO1 (configuration not stated) | 2.2 | . | -3% | -1.7 | 3% | 20% | -3.4%
Cc1ccc(C(=O)Nc2nnc(-c3ccco3)o2)cc1C | 1.8 | -1.3% | 7% | -1.3 | 16% | -84%[inhibitor] | -0.2%
O=S(=O)(NCc1ccco1)c1cccc2cccnc12 | 1.6 | -1.8% | 14% | -2.5 | -5%[15.4 µM] | 16% | -0.8%
O=C(C[C@H]1C[C@H](C(=O)N2CCOCC2)[C@@]2(CCC3CCCC3)c3[nH]c4cc(-c5ccco5)ccc4c3CCN2C1=O)NCc1ccco1 | . | 3.7% | . | -0.2 | -8% | . | -0.9%
COC(=O)c1cnc(SCc2ccc(Cl)cc2)n1C | -6.0 | . | 13% | -5.6 | -6% | -10%[15.4 µM] | 0.9%
O=C(c1ccco1)N1CCC2(CCN(Cc3nccs3)CC2)CC1 | 0.5 | . | 21% | . | . | . | 0.0%
O=C(c1[nH]c(C(F)(F)F)nc1-c1ccccc1)N1CCN(c2ncccn2)CC1 | . | -6.2% | . | -1.3 | . | . | 8.2%
Cc1cccc(NC(=O)c2ccc3nccnc3c2)c1C | 0.5 | . | 5% | -1.8 | -5% | 27% | 1.8%
Cc1ccc(CCNC(=O)C2CC(c3cc(C(F)(F)F)cc(C(F)(F)F)c3)=NO2)cc1 (configuration not stated) | 2.6 | 0.7% | 2% | 0.6 | 0% | . | 5.4%
CCOc1ccc(N2CC(C(=O)Nc3nnc(CC)s3)CC2=O)cc1 (configuration not stated) | -1.3 | . | 56µM* | -0.9 | ? | -1%[15.4 µM] | 0.1%
COc1ccc2cc(C(=O)C3CCCN(Cc4cnc(N5CCOCC5)s4)C3)ccc2c1 (configuration not stated) | 0.3 | . | 9% | 0.1 | -7% | -40%[inhibitor] | 0.0%
CCN(c1ccccc1)S(=O)(=O)c1cccc(C(=O)NCCN2CCOCC2)c1 | . | 0.0% | . | -4.5 | -7% | -17% | 0.3%
C[n+]1ccc(/C=C/c2ccc(Br)cc2)cc1 | 1.6 | ? | -2% | -1.8 | 0% | -25% | ?
Cc1ccc(-c2nc(CS(=O)(=O)CC(=O)N3CCCCCC3)c(C)o2)cc1 | 0.2 | -13% | 13% | -1.5 | -4% | 3% | -1.3%
C=C(C)CNC(=S)NNC(=O)CCn1c2ccc(Cl)cc2c2cc(Cl)ccc21 | 6.4 | -9.1% | ? | -2.2 | -8% | 10% | 0.4%
COc1cccc(Nc2ccc(-n3ccnc3)nn2)c1 | 0.3 | . | 4% | -0.2 | 8% | -6%[15.4 µM] | -1.0%
Cc1cccc(NC(=O)CN2CCN(C(=O)c3cc(C4CC4)nn3-c3ccccc3)CC2)c1C | . | -2.7% | . | -0.4 | . | -23% | 0.3%
Cc1ccccc1NC(=O)CN1C(=O)NC2(CCCCC2)C1=O | -1.9 | -2.1% | 9% | -1.0 | -1% | 3% | 0.7%
CN(C)S(=O)(=O)c1cc(NC(=O)COC(=O)CC2Sc3ccccc3NC2=O)ccc1Cl (configuration not stated) | . | . | . | -4.3 | ? | 6% | -0.8%
COc1cccc2cc(C(=O)NCCc3ccccc3)c(=O)oc12 | 2.9 | -1.2% | 2% | -2.9 | -13% | 28%[15.4 µM] | 8.6%
NNC(=O)Cc1cc(=O)[nH][nH]1 | . | -1.8% | . | -5.5 | . | 43% | 0.3%
COc1ccc(N=C2C(=O)N3c4c(cccc42)C(C)=CC3(C)C)cc1 | 4.6 | -2.3% | -8% | -6.3 | 13% | 11% | 16%
CN(Cc1ccc2c(c1)CCCN2C)C(=O)[C@H]1O[C@@H](n2cnc3c(N)ncnc32)[C@H](O)[C@@H]1O | . | -2.9% | . | -1.2 | . | . | 0.3%
COC(=O)c1c(C)oc2ccc(NS(=O)(=O)c3cc(OC)ccc3OC)cc12 | 1.2 | 15% | -9% | 3.6 | ? | 28% | 1.1%
Cc1cccc2cc(CN(Cc3cccs3)S(=O)(=O)c3ccc4c(c3)OCCO4)c(=O)[nH]c12 | 1.6 | ? | 5% | -1.4 | -4% | -6% | 1.0%
CC(=O)Nc1ccc(C(=O)N2CCCC2)cc1 | 0.4 | -0.4% | 16% | -1.2 | 0% | -2% | -0.1%
O=C(/C=C/c1ccc2c(c1)OCO2)c1ccco1 | 0.9 | -5.3% | 0% | 3.8 | 10% | 7% | -3.0%
Cc1ccc(OCC(=O)OCC(=O)NC2CC2)cc1C | . | 0.4% | . | 7.5 | 5% | -5% | 0.1%
Cc1cc(C)n2nc(SC(C)C(=O)Nc3ccc(Cl)cn3)nc2n1 (configuration not stated) | 5.5 | 0.3% | 7% | -2.4 | 5% | 3%[15.4 µM] | 2.9%
CC(NC(c1ccccc1)c1ccccc1)C(=O)N1CCCc2ccccc21 (configuration not stated) | 4.8 | -2.3% | -3% | -2.4 | -27% | ? | 0.3%
COCCNC(=O)c1cc2c(c(-c3cccc(-c4cc5ccccc5o4)c3)n1)[C@@H](CCO)N(S(=O)C(C)(C)C)C2 (some centres not stated) | . | -13% | . | 3.2 | . | . | 1.6%
COc1ccccc1N1CCN(CCC(=O)Nc2ccc(F)cc2)CC1 | -7.3 | 1.1% | 12% | -4.7 | 6% | 5% | 1.0%
CCN(CC)c1ccc(/C=C(/C#N)C(=O)NC(C)C)o1 | ? | . | 8% | -4.1 | 0% | 8%[15.4 µM] | 7.1%
COc1cccc(NC(=S)N2c3ccccc3CC2C)c1 (configuration not stated) | -0.4 | -0.4% | -6% | 0.9 | 0% | -1% | -0.1%
O=C(O)c1cccc(NC(=O)c2cc(S(=O)(=O)N3CCOCC3)cs2)c1 | -3.2 | . | 4% | -2.7 | 5% | -1% | -2.8%
CCCCn1c(N)c(N(CCOC)C(=O)C2CC(=O)N(Cc3ccc(C)cc3)C2)c(=O)[nH]c1=O (configuration not stated) | . | -0.6% | . | -2.4 | 9% | 5%[15.4 µM] | -0.6%
Cc1cc(C(=O)NC(C)Cc2ccccc2)cc(C)c1[N+](=O)[O-] (configuration not stated) | 0.0 | . | 9% | -6.1 | -5% | 5%[15.4 µM] | 1.9%
COc1ccc(CNC(=O)CCCC(=O)n2nc(C)c3ccccc32)cc1 | 2.1 | -1.3% | -15% | -2.8 | -13% | 10% | 1.1%
C=CCN1C(=O)C(CC(=O)Nc2ccc(OC)cc2)N(Cc2ccco2)C1=S (configuration not stated) | 4.4 | -1.4% | 2% | 3.0 | 6% | -33%[inhibitor] | -3.1%[38.3 µM]
Cc1cccc(N2C(=O)C(Oc3ccc(Cl)cc3Cl)C2C=O)c1C (configuration not stated) | 0.1 | -2.1% | 9% | -2.7 | -7% | -50%[inhibitor] | 2.3%
CC(=O)Nc1ccc(S(=O)(=O)N2CCC(C(=O)NCCc3ccc(Cl)cc3)CC2)cc1 | -1.2 | . | 18% | 13 | -4% | -13% | -1.3%
Nc1nc(CN2CCN(c3ccccc3F)CC2)nc(N2CCCc3ccccc32)n1 | -1.6 | . | 14% | ? | 0% | 24% | 4.1%
Cc1cc(-c2csc(N)n2)c(C)n1C | ? | 0.7% | 20µM* | 0.2 | -10% | -14% | 0.0%
CC(NC(=O)c1ccc2c(c1)OCO2)c1cccc(C(F)(F)F)c1 (configuration not stated) | . | -3.2% | . | 8.4 | -1% | ? | 1.6%
COc1ccc(N2CCN(C(=O)[C@H](Cc3c[nH]c4ccccc34)NC(C)=O)CC2)cc1 | 3.3 | . | -4% | -0.8 | 8% | -14%[15.4 µM] | 2.3%
Cc1ccc(S(=O)(=O)Nc2c(C)nc3nc[nH]n3c2=O)c(C)c1 | -0.9 | . | 23% | -1.3 | -10% | ? | 2.8%
Cc1ccc(CN2CCN(CC(=O)NC(C)CCc3ccccc3)C2=O)cc1 (configuration not stated) | -0.8 | -0.2% | 4% | -0.9 | -1% | -9% | 6.4%
O=C(CSCc1n[nH]c(=O)[nH]1)NCCOc1cccc(Oc2ccccc2)c1 | 7.1 | 0.7% | 5% | -0.2 | 1% | -19% | 7.6%[38.3 µM]
Cc1nn(CC(=O)N2CCC(C(N)=O)CC2)c(=O)c2nn(-c3ccccc3)c(C)c12 | -14 | -3.5% | 16% | 0.9 | 15% | -7% | -0.1%
COC(=O)c1ccc(CSc2cc(C)c3cccc(C)c3n2)o1 | ? | -4.9% | 10µM* | 3.3 | -25% | 8%[15.4 µM] | -0.6%
O=C(COC(=O)CN1C(=O)C2CCCCC2C1=O)Nc1c(Cl)cccc1Cl (configuration not stated) | . | -1.3% | . | 0.7 | -11% | -16% | 1.6%
CN1CCN(c2ncc3nc(-c4ccccc4)c(=O)n(CCC#N)c3n2)CC1 | -1.4 | . | 3% | . | . | . | 0.0%
CC(Oc1ccc(C(=O)NC2CCCCC2)cc1)C(=O)O (configuration not stated) | 9.4 | -2.3% | 17% | -5.1 | 4% | -35%[inhibitor] | 0.4%
CC1CC(NNC(=O)c2ccccc2)=Nc2ccccc2N1C (configuration not stated) | ? | -1.0% | 8% | 2.6 | 4% | 1% | -0.1%
